# Assay outcomes as filed in PubChem BioAssay.
# HIV Env fusion – blocks HIV Env-driven cell-cell fusion; HeLa-JRFL Env/CEM21 cell fusion, luciferase; inhibition, % at 12.3 µM; 360,000 tested, 1.1% active;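 active = mean replicate inhibition score of at least 50 and every replicate individually at or above 50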;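 also: 0% = plate neutral controls and 100% = maraviroc near 300 nM; one replicate is shown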
# Yeast UUG start – modulators of start codon recognition fidelity in yeast | S. cerevisiae UUG-firefly luciferase reporter, luminescence/redox ratio | activity score, % at 18.7 µM | 350,000 tested, 0.13% active;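 active = replicate mean at a twofold rise or more, about +100% in these data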;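 also: firefly luciferase made from a UUG start codon reports start codon fidelity; reporter light over untreated wells divided by growth signal over untreated wells; some hits fall short of that in this replicate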
# Numbers without * were called inactive; [ ] = remark or other dose. A portion of the library; count on the stated rates, not on these rows.
SMILES,HIV Env fusion,Yeast UUG start
CC(C)NC(=O)N(C)C[C@H]1Oc2ncc(-c3cncnc3)cc2C(=O)N([C@H](C)CO)C[C@H]1C,-5[16.7 µM],-5
C[C@H](CO)N1C[C@H](C)[C@@H](CN(C)Cc2cccnc2)Oc2ncc(-c3ccc(C#N)cc3)cc2C1=O,-17[16.7 µM],3
C[C@H](CO)N1C[C@H](C)[C@@H](CN(C)C(=O)CN(C)C)Oc2ncc(C#C[C@@H](C)O)cc2C1=O,1[16.7 µM],1
COc1cccc(S(=O)(=O)Nc2ccc3c(c2)OC[C@@H](C)NC[C@@H](C)[C@@H](OC)CN(C)C3=O)c1,-12[16.7 µM],-5
CO[C@H]1CN(C)C(=O)c2cc(NC(C)=O)ccc2OC[C@@H](C)N(C(=O)CN(C)C)C[C@H]1C,-12[16.7 µM],2
O=C(N[C@@H]1CC[C@@H](CC(=O)N2CCc3ccccc3C2)O[C@@H]1CO)C1CC1,-16[16.7 µM],-1
CCC(=O)N(C)C[C@H]1Oc2ncc(-c3cccc(OC)c3)cc2C(=O)N([C@@H](C)CO)C[C@@H]1C,-4[16.7 µM],-23
COc1ccc(S(=O)(=O)N(C)C[C@H]2Oc3ccc(NC(=O)CCN4CCOCC4)cc3CC(=O)N([C@@H](C)CO)C[C@@H]2C)cc1,-18[16.7 µM],-2
O=C(N[C@H]1CC[C@H](CCNS(=O)(=O)c2ccccc2)O[C@H]1CO)c1cccnc1,-3[16.7 µM],-5
COc1ccc(NC(=O)Nc2ccc3c(c2)CC(=O)N([C@@H](C)CO)C[C@H](C)[C@@H](CN(C)C(=O)Nc2cccc4ccccc24)O3)cc1,1[16.7 µM],-3
CCCC#Cc1cnc2c(c1)C(=O)N([C@H](C)CO)C[C@@H](C)[C@H](CN(C)C(=O)Nc1ccccc1F)O2,30[16.7 µM],-2
O=C(NC1CCCCC1)N[C@H]1CC[C@@H](CC(=O)N2CCOCC2)O[C@@H]1CO,-6[16.7 µM],-13
Cc1noc(C)c1NC(=O)Nc1ccc2c(c1)C(=O)N([C@@H](C)CO)C[C@@H](C)[C@@H](CN(C)C(=O)Nc1ccc(F)cc1)O2,3[16.7 µM],1
CC(=O)Nc1ccc2c(c1)C(=O)N(C)[C@@H]1CC[C@H](CC(=O)NC3CCCCC3)O[C@@H]1CO2,2[16.7 µM],-8
C[C@@H]1CN([C@H](C)CO)C(=O)c2cc(NC(=O)Nc3ccc(C(F)(F)F)cc3)ccc2O[C@H]1CN(C)Cc1ccc(-c2ccccc2)cc1,13[16.7 µM],16
CCCC(=O)Nc1ccc2c(c1)OC[C@H](C)N(Cc1ccccc1)C[C@@H](C)[C@H](OC)CN(C)C2=O,-15[16.7 µM],-6
CCCC(=O)Nc1ccc2c(c1)OC[C@@H](C)N(Cc1ccccc1)C[C@@H](C)[C@@H](OC)CN(C)C2=O,0[16.7 µM],-9
O=C(C[C@H]1C[C@H]2c3cc(NC(=O)C4CCC4)ccc3O[C@H]2[C@@H](CO)O1)NCC(F)(F)F,57*[16.7 µM],3
COc1ccccc1-c1ccc([C@H]2[C@@H](C#N)N(C(=O)C3CCOCC3)[C@H]2CO)cc1,1[16.7 µM],13
CCCNC(=O)N(C)C[C@H]1Oc2ncc(-c3ccc(OC)cc3)cc2C(=O)N([C@@H](C)CO)C[C@H]1C,-10[16.7 µM],-9
C[C@@H]1CN([C@@H](C)CO)C(=O)c2cc(C#CC(C)(C)O)cnc2O[C@@H]1CN(C)C(=O)C1CCOCC1,13[16.7 µM],-1
Cc1ccc(S(=O)(=O)Nc2ccc3c(c2)C(=O)N([C@@H](C)CO)C[C@H](C)[C@H](CN(C)S(=O)(=O)c2ccc(Cl)cc2)OCCCC[C@@H](C)O3)cc1,-2[16.7 µM],-9
Cc1ccc(S(=O)(=O)Nc2ccc3c(c2)C(=O)N([C@H](C)CO)C[C@H](C)[C@@H](CN(C)Cc2ccc(C(=O)O)cc2)OCCCC[C@H](C)O3)cc1,9[16.7 µM],22
C[C@H](CO)N1C[C@H](C)[C@@H](CN(C)S(C)(=O)=O)Oc2ccc(NC(=O)Nc3ccc(F)cc3)cc2C1=O,-2[16.7 µM],-4
Cc1noc(C)c1NC(=O)N[C@@H]1C=C[C@H](CC(=O)Nc2ccccc2)O[C@H]1CO,-2[16.7 µM],-11
CCCN(C)C[C@@H]1OCCCC[C@H](C)Oc2ccc(NC(=O)CCCN(C)C)cc2C(=O)N([C@H](C)CO)C[C@@H]1C,1[16.7 µM],-1
C[C@H]1CN([C@@H](C)CO)S(=O)(=O)c2ccc(C#Cc3ccccc3)cc2O[C@H]1CN(C)C(=O)CN(C)C,19[16.7 µM],30
CO[C@@H]1CN(C)C(=O)c2cc(NS(=O)(=O)c3ccc(Cl)cc3)ccc2OC[C@@H](C)N(C)C[C@H]1C,9[16.7 µM],-3
C[C@H](CO)N1C[C@H](C)[C@H](CN(C)Cc2ccc(-c3ccccc3)cc2)Oc2c(NC(=O)Nc3ccccc3)cccc2C1=O,2[16.7 µM],15
C/C=C/c1ccc2c(c1)O[C@@H](CN(C)C(=O)Nc1ccc(C(F)(F)F)cc1)[C@@H](C)CN([C@H](C)CO)S2(=O)=O,23[16.7 µM],-19
COc1ccc(NC(=O)Nc2ccc3c(c2)C(=O)N([C@@H](C)CO)C[C@@H](C)[C@H](CN(C)S(=O)(=O)c2ccc(F)cc2)OCCCC[C@@H](C)O3)cc1,4[16.7 µM],-12
COc1ccc(S(=O)(=O)Nc2ccc3c(c2)C(=O)N([C@H](C)CO)C[C@@H](C)[C@@H](CN(C)S(=O)(=O)c2c(C)noc2C)OCCCC[C@H](C)O3)cc1,-34[16.7 µM],9
COc1ccccc1-c1cn(CC[C@H]2CC[C@H](NC(=O)C3CCCCC3)[C@@H](CO)O2)nn1,8[16.7 µM],-9
C[C@H](O)C#Cc1cnc2c(c1)C(=O)N([C@@H](C)CO)C[C@H](C)[C@@H](CN(C)C(=O)c1ccc(F)cc1)O2,-15[16.7 µM],9
C[C@H]1CCCCO[C@@H](CN(C)CC2CCCCC2)[C@@H](C)CN([C@@H](C)CO)C(=O)c2cc(NS(=O)(=O)c3ccccc3)ccc2O1,-48[16.7 µM],23
CCCC(=O)Nc1ccc2c(c1)OC[C@@H](C)N(CC1CCCC1)C[C@H](C)[C@@H](OC)CN(C)C2=O,-1[16.7 µM],2
C=CCN1Cc2ccccc2[C@H]2OC(c3ccc(OCCCO)cc3)=N[C@@]2(CCC(=O)OC(C)(C)C)C1=O,-3[16.7 µM],-1
CO[C@H]1CN(C)C(=O)c2cc(NC(=O)C3CCCC3)ccc2OC[C@H](C)N(C(=O)CC2CC2)C[C@H]1C,-8[16.7 µM],3
COc1ccc(CN(C)C[C@@H]2OCCCC[C@H](C)Oc3ccc(NC(=O)Nc4ccc(OC)cc4)cc3C(=O)N([C@H](C)CO)C[C@@H]2C)cc1,20[16.7 µM],9
C[C@@H](O)C#Cc1cnc2c(c1)C(=O)N([C@@H](C)CO)C[C@H](C)[C@@H](CN(C)C(=O)CN(C)C)O2,-17[16.7 µM],2
CNC[C@@H]1Oc2ccc(NC(=O)NC3CCCCC3)cc2CC(=O)N([C@@H](C)CO)C[C@@H]1C,-6[16.7 µM],-3
O=S(=O)(N[C@@H]1CCCN(Cc2ccc(OCCO)cc2)C1)c1cccc2cccnc12,-3[16.7 µM],1
C[C@@H]1CN([C@H](C)CO)C(=O)c2cc(C#CCc3ccccc3)cnc2O[C@H]1CN(C)Cc1cccnc1,26[16.7 µM],5
COc1ccc(S(=O)(=O)N(C)C[C@@H]2Oc3ccc(NS(C)(=O)=O)cc3C(=O)N([C@@H](C)CO)C[C@@H]2C)cc1,30[16.7 µM],-6
O=C(NCC[C@@H]1CC[C@@H](NS(=O)(=O)c2cccc(F)c2)[C@@H](CO)O1)C1CCC1,-4[16.7 µM],-7
C[C@@H]1CCCCO[C@H](CN(C)Cc2ccncc2)[C@H](C)CN([C@@H](C)CO)C(=O)c2cc(NC(=O)NC3CCCCC3)ccc2O1,-423[16.7 µM],-4
C[C@@H]1CN([C@H](C)CO)S(=O)(=O)c2ccc(-c3ccc(C#N)cc3)cc2O[C@@H]1CN(C)Cc1cccc(F)c1,22[16.7 µM],-4
O=C(C[C@@H]1C[C@H]2c3cc(NC(=O)C4CCC4)ccc3O[C@H]2[C@H](CO)O1)NCc1ccccc1,-12[16.7 µM],-5
C[C@H]1CN([C@@H](C)CO)C(=O)Cc2cc(NC(=O)Nc3ccc(F)cc3)ccc2O[C@H]1CN(C)C(=O)NC1CCCCC1,2[16.7 µM],-3
C[C@@H]1CN([C@H](C)CO)C(=O)c2cc(NC(=O)Cc3ccccc3)ccc2O[C@@H](C)CCCCO[C@@H]1CN(C)C(=O)NC1CCCCC1,-3[16.7 µM],-1
CCC(=O)Nc1ccc2c(c1)C(=O)N(C)[C@H]1CC[C@@H](CC(=O)NCC3CC3)O[C@H]1CO2,2[16.7 µM],11
C[C@H]1CN([C@@H](C)CO)C(=O)c2cc(-c3ccccc3)cnc2O[C@H]1CN(C)C(=O)c1ccccn1,-2[16.7 µM],-12
CO[C@@H]1CN(C)C(=O)c2cc(NC(=O)C3CCCCC3)ccc2OC[C@@H](C)N(C(=O)c2ccccc2)C[C@H]1C,5[16.7 µM],26
O=C(C[C@H]1C[C@@H]2c3cc(NC(=O)Nc4ccc(C(F)(F)F)cc4)ccc3O[C@@H]2[C@@H](CO)O1)NCc1ccc2c(c1)OCO2,23[16.7 µM],-6
C[C@@H]1CN([C@H](C)CO)C(=O)c2cc(NC(=O)Nc3ccc(C(F)(F)F)cc3)ccc2O[C@@H]1CN(C)S(=O)(=O)c1cccs1,6[16.7 µM],-4
COc1cccc(-c2cnc3c(c2)C(=O)N([C@H](C)CO)C[C@H](C)[C@H](CN(C)Cc2cccnc2)O3)c1,5[16.7 µM],-10
C[C@H](CO)N1C[C@H](C)[C@H](CN(C)Cc2ccc3c(c2)OCO3)Oc2ccc(NC(=O)Cc3cn(C)c4ccccc34)cc2CC1=O,-5[16.7 µM],-10
COC(=O)C[C@@H]1C[C@H]2c3cc(NC(=O)CC4CC4)ccc3O[C@H]2[C@H](CO)O1,-3[16.7 µM],-2
COC(=O)C[C@@H]1CC[C@H]2[C@@H](COc3ccc(NC(=O)c4ccccc4OC)cc3C(=O)N2C)O1,-4[16.7 µM],-13
C[C@@H]1CN([C@H](C)CO)C(=O)c2cc(-c3ccccc3F)cnc2O[C@H]1CN(C)Cc1ccccc1F,13[16.7 µM],4

# The list goes on.
SMILES,HIV Env fusion,Yeast UUG start
COc1ccc(NC(=O)N(C)C[C@H]2OCCCC[C@@H](C)Oc3ccc(NC(=O)Nc4ccc(F)cc4)cc3C(=O)N([C@H](C)CO)C[C@H]2C)cc1,-8[16.7 µM],11
C[C@H]1CN([C@@H](C)CO)C(=O)c2cccc(NC(=O)Nc3cccc4ccccc34)c2O[C@H]1CN(C)Cc1ccncc1,11[16.7 µM],-5
C[C@H]1CN([C@@H](C)CO)S(=O)(=O)c2ccc(-c3ccccc3)cc2O[C@H]1CN(C)Cc1ccccc1C(=O)O,26[16.7 µM],8
COc1ccc(NC(=O)N(C)C[C@H]2Oc3c(NS(=O)(=O)c4ccc(F)cc4)cccc3C(=O)N([C@@H](C)CO)C[C@H]2C)cc1,-10[16.7 µM],4
CC(C)NC(=O)Nc1ccc2c(c1)C(=O)N(C)[C@H]1CC[C@@H](CC(=O)NC3CCCCC3)O[C@@H]1CO2,-17[16.7 µM],24
Cc1noc(C)c1NC(=O)Nc1ccc2c(c1)CC(=O)N([C@H](C)CO)C[C@H](C)[C@@H](CN(C)C(=O)NC1CCCCC1)O2,-15[16.7 µM],2
C[C@@H]1CN([C@H](C)CO)C(=O)Cc2cc(NC(=O)NC3CCCCC3)ccc2O[C@@H]1CN(C)CC1CC1,1[16.7 µM],-5
C[C@@H]1CCCCO[C@@H](CN(C)C(=O)Nc2ccc(F)cc2)[C@@H](C)CN([C@H](C)CO)C(=O)c2cc(NS(C)(=O)=O)ccc2O1,11[16.7 µM],12
COc1ccc(-c2ccc([C@@H]3[C@H](C#N)N(C(=O)c4cccc(F)c4)[C@H]3CO)cc2)cc1,-2[16.7 µM],-8
O=C(NC1CCCCC1)N[C@H]1CC[C@@H](CC(=O)N2CCOCC2)O[C@H]1CO,-13[16.7 µM],-12
CC(C)C#Cc1ccc2c(c1)O[C@@H](CN(C)Cc1cccnc1)[C@H](C)CN([C@@H](C)CO)S2(=O)=O,-23[16.7 µM],72*

# 9 entries from above, reformatted:
# The line under a structure holds: HIV Env fusion | Yeast UUG start
- C[C@@H]1CN([C@H](C)CO)C(=O)c2cc(-c3ccccc3F)cnc2O[C@H]1CN(C)Cc1ccccc1F
  13[16.7 µM] | 4
- COc1ccc(NC(=O)N(C)C[C@H]2OCCCC[C@@H](C)Oc3ccc(NC(=O)Nc4ccc(F)cc4)cc3C(=O)N([C@H](C)CO)C[C@H]2C)cc1
  -8[16.7 µM] | 11
- C[C@H]1CN([C@@H](C)CO)C(=O)c2cccc(NC(=O)Nc3cccc4ccccc34)c2O[C@H]1CN(C)Cc1ccncc1
  11[16.7 µM] | -5
- C[C@H]1CN([C@@H](C)CO)S(=O)(=O)c2ccc(-c3ccccc3)cc2O[C@H]1CN(C)Cc1ccccc1C(=O)O
  26[16.7 µM] | 8
- COc1ccc(NC(=O)N(C)C[C@H]2Oc3c(NS(=O)(=O)c4ccc(F)cc4)cccc3C(=O)N([C@@H](C)CO)C[C@H]2C)cc1
  -10[16.7 µM] | 4
- CC(C)NC(=O)Nc1ccc2c(c1)C(=O)N(C)[C@H]1CC[C@@H](CC(=O)NC3CCCCC3)O[C@@H]1CO2
  -17[16.7 µM] | 24
- Cc1noc(C)c1NC(=O)Nc1ccc2c(c1)CC(=O)N([C@H](C)CO)C[C@H](C)[C@@H](CN(C)C(=O)NC1CCCCC1)O2
  -15[16.7 µM] | 2
- C[C@@H]1CN([C@H](C)CO)C(=O)Cc2cc(NC(=O)NC3CCCCC3)ccc2O[C@@H]1CN(C)CC1CC1
  1[16.7 µM] | -5
- C[C@@H]1CCCCO[C@@H](CN(C)C(=O)Nc2ccc(F)cc2)[C@@H](C)CN([C@H](C)CO)C(=O)c2cc(NS(C)(=O)=O)ccc2O1
  11[16.7 µM] | 12
